Calb biofilm kill: mixture kills Candida albicans biofilm cells. inhibition, % at 7.6 µM. 120,000 tested, 0.02% active. AID 1242. C. albicans biofilm persisters + clotrimazole, fluorescence viability; primary screen in compound mixtures of four per well;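 active = inhibition above 30.3% in the primary screen of four-compound pools, then above 30% when the compound was retested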;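 also: compounds exposed to preformed 24 h biofilms for 48 h; the number belongs to the whole pool; some results filed as inactive read as strong as hits; inactives centre near 12; 0% = biofilm with clotrimazole alone and 100% = kill control; retested singly at about 60 µM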
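System: C. albicans CAF4-2 wild-type biofilms; Medium: RPMI/MOPS medium, pH 7.0; Reagent: Clotrimazole, 50 µg/mL; Times: biofilm formation 24 h, compound exposure 48 h, 37 °C; Detection: 2-h Alamar Blue fluorescence, 535/590 nm excitation/emission; Evaluation: percent inhibition of biofilm viability.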
The depositor's hits bear a star. Only part of the results is shown. The share of hits here may be higher or lower than overall.

Compound | Calb biofilm kill
COc1ccccc1NC(=O)CCC(=O)OCc1ccc([N+](=O)[O-])cc1 | 9
Cc1[nH][nH]c(=O)c1/C=N/N1CCOCC1 | 11
Cn1nc(-c2ccccc2)cc1NS(=O)(=O)c1ccccc1 | 16
O=C(N/N=C/c1coc2ccccc2c1=O)c1cn(-c2ccccc2)nc1-c1ccccc1 | 6
CC(=O)Nc1ccc(/C=N/NC(=O)c2cc3ccccc3nc2C)cc1 | 11
CCCCCC(O)c1cccc(OCc2ccc3ccccc3n2)c1 (stereo not drawn) | 7
COC(=O)c1ccc(NC(=S)NC(=O)c2c(-c3ccccc3)noc2C)cc1 | 21
Cc1cc(C)c(NC(=O)Cn2c([N+](=O)[O-])cnc2C)c(C)c1 | 15
CCCCN(C)CCC(=O)Nc1ccc(F)c(F)c1 | 13
Oc1ccc(Cn2ccnc2)c2cccnc12 | 21
CC(=O)OCC12COC3c4ccccc4OC(C)(CC1C)C3C2C (stereo not drawn) | 19
Cc1ccc2nc(Cl)c(C#N)cc2c1 | -4
CC1CC(OCC(O)C[N+]2(C)CCOCC2)CC(C)(C)C1 (stereo not drawn) | -1
COc1ccc(N/C(=N/c2nc(C)cc(C)n2)NC(=O)Nc2ccc(Cl)c(Cl)c2)c(OC)c1 | -12
O=C(/C=C/c1c(Cl)nc2ccccn12)N1CCCCC1 | 21
CCOc1cc(/C=C/c2ccc3cccc([N+](=O)[O-])c3n2)cc(Cl)c1O | 17
COC(=O)C1(C(F)(F)F)N=C(C(F)(F)F)Nc2ccc(Cl)cc21 (stereo not drawn) | 6
NC(=S)N=Nc1c(O)[nH]c2cc(F)c(F)cc12 | 24
COc1ccc(C(=O)Nc2ccc(CN3CCS(=O)(=O)CC3)cc2)cc1 | 21
O=C(NCc1cccnc1)c1ccc(Cl)c(S(=O)(=O)N2CCCCCC2)c1 | 14
O=C(NCc1nnc(SCc2ccccc2)n1-c1ccccc1)C12CC3CC(CC(C3)C1)C2 | 15
CCC(C)(C)n1nnnc1C(c1ccc2ncccc2c1)N1CCCC(C)C1 (stereo not drawn) | 20
CCC(C)NC(=O)CNC(=S)N(Cc1ccc(F)cc1)C1CCCCC1 (stereo not drawn) | 21
COc1ccc(-c2oc3cc(O)c(OC)c(O)c3c(=O)c2OC)cc1 | 24
CCNC(=S)NNC(=O)c1cc(Br)cs1 | 8
CC(C)(C)NC(=O)NCCc1ccccc1 | 13
S=c1[nH]nc(-c2ccc3ccccc3n2)n1-c1ccccc1Cl | 10
CCCN1C2CCCC1CC(NC(=S)NCCCOCC)C2 (stereo not drawn) | -5
O=C1C2C3c4ccccc4C(c4ccccc43)C2c2nc3ccccc3n21 (stereo not drawn) | 8
CCOc1ccc(N2CC(C(=O)Nc3ccc4c(c3)OCO4)CC2=O)cc1 (stereo not drawn) | 9

Continued; it opens with the six that closed the last part.
Compound | Calb biofilm kill
CCNC(=S)NNC(=O)c1cc(Br)cs1 | 8
CC(C)(C)NC(=O)NCCc1ccccc1 | 13
S=c1[nH]nc(-c2ccc3ccccc3n2)n1-c1ccccc1Cl | 10
CCCN1C2CCCC1CC(NC(=S)NCCCOCC)C2 (stereo not drawn) | -5
O=C1C2C3c4ccccc4C(c4ccccc43)C2c2nc3ccccc3n21 (stereo not drawn) | 8
CCOc1ccc(N2CC(C(=O)Nc3ccc4c(c3)OCO4)CC2=O)cc1 (stereo not drawn) | 9
Cc1ccc(S(=O)(=O)NC(N)=NCCc2ccc(Cl)cc2)cc1C | 11
CCOC(=O)C1(C)NC(c2ccccc2F)C2C(=O)N(CC)C(=O)C21 (stereo not drawn) | 15
CCNC(=S)Nc1ccc(N2CCCCC2)cc1 | 2
COc1ccc(NC(=S)N(CCC(C)C)C(C)c2ccncc2)cc1 (stereo not drawn) | 13
Cc1ccc(C(=O)CSc2nnc(N)s2)c(C)c1 | 15
CCOC(=O)c1cc(C(=O)c2ccccc2O)cn2c(=O)c3c(C)c(C)sc3nc12 | 11
CC1CCCN(C(=O)CSc2nc3ncccc3[nH]2)C1 (stereo not drawn) | 4
COc1ccc(CC2(CO)CCN(Cc3cnn(-c4ccc(F)cc4)c3)CC2)cc1 | 17
Cc1cccc(C)c1OCCNC(=O)CCC(=O)c1ccccc1 | 14
O=C(c1cccc(C(F)(F)F)c1)C1CCCN(C(=O)CCCN2CCCC2=O)C1 (stereo not drawn) | 2
COCCNCCCOc1ccc(C)cc1Br | 7
CCOC(=O)c1cc(CC)sc1/N=C/C1=C(O)CCCC1=O | 3
Cc1cc(/C=N/NC(=O)COc2cccc3cccnc23)c(C)n1-c1ccc(O)cc1 | 8
COc1ccc(-c2cc(-c3nnc(COC(=O)C4CC4C)o3)c3ccccc3n2)cc1OC (stereo not drawn) | 15
CCCN(CCC)C(=O)Nc1ccc(F)cc1F | 11

Reprinted from the part before: 3 entries, followed by the next part.
Compound | Calb biofilm kill
Cc1cc(/C=N/NC(=O)COc2cccc3cccnc23)c(C)n1-c1ccc(O)cc1 | 8
COc1ccc(-c2cc(-c3nnc(COC(=O)C4CC4C)o3)c3ccccc3n2)cc1OC (stereo not drawn) | 15
CCCN(CCC)C(=O)Nc1ccc(F)cc1F | 11
O=S(=O)(c1ccccc1)c1nc(-c2ccccc2F)oc1NCc1cccnc1 | 13
CCOC(=O)C1=C(C)Nc2ccccc2N=C1NC(=O)c1ccc(Cl)c(S(=O)(=O)N2CCCC2)c1 | 17
O=[N+]([O-])c1ccc(N2CCN(S(=O)(=O)c3ccc4ccccc4c3)CC2)cc1NCC1CCCO1 (stereo not drawn) | 4
Cc1cc(SCNC(=O)c2ccccc2)nc(C(C)C)n1 | 10
O=C(CNC(=O)c1ccccc1F)NCCOc1ccccc1Cl | 16
O=C(CCC(=O)c1ccc(Oc2ccccc2)cc1)Nc1cccc(Cl)c1Cl | 3
Cc1cc(C)n2nc(C(F)(F)F)c(-c3ccccc3)c2n1 | 18
CCOc1ccc(C(CC(=O)O)n2cnnn2)cc1 (stereo not drawn) | -4
COc1ccc([N+](=O)[O-])cc1NC(=O)c1cncc(Br)c1 | 5
Cc1ccc(NC(=S)NNC(=O)CSc2nnc(-c3ccc(Cl)cc3)n2C2CCCCC2)cc1 | 15
COc1cccc(C2C3=C(CCCC3=O)Nc3[nH]n(-c4ccccc4)c(=O)c32)c1 (stereo not drawn) | -4
COc1ccc(NC(=O)COC(=O)CC2CC3CCC2C3)c([N+](=O)[O-])c1 (stereo not drawn) | 6
CC(=O)Nc1cc(C)nn1-c1nc2ccccc2s1 | 6
CCN(CC)C(=O)Cn1cc(SCC(=O)NC2CCCC2)c2ccccc21 | 19
CC(C)n1c(N2CCN(C(=O)Nc3ccc(Cl)cc3)CC2)nc2ccccc21 | 28
Cc1cc(C(=O)OCC(=O)NCc2ccc3c(c2)OCO3)c2ccccc2n1 | 7
Cc1ccc(C(C)C)c(OCc2ccc(C(=O)N/N=C/c3ccc(O)c(O)c3)cc2)c1 | 16
COc1ccc(N(C(=O)c2cnsn2)C(C(=O)NC2CCCCC2)c2ccncc2)cc1 (stereo not drawn) | -3
COc1ccc(/C=N/NC(=O)CCn2cnc3ccccc32)cc1 | 5
Nc1nc2ccccc2n1/N=C/c1ccc([N+](=O)[O-])s1 | 18
COc1ccc2oc(-c3ccccc3[N+](=O)[O-])cc(=O)c2c1 | 2
CC(C)N1CCc2c(sc(NC(=O)c3ccc(S(=O)(=O)N4CCc5ccccc54)cc3)c2C(N)=O)C1 | 13
O=C(CSc1ccc(-c2cccs2)nn1)c1cccs1 | 16
CCO[C@@H]1OC(C(N)=O)=C[C@H](c2ccccc2)[C@H]1CCCO | 18
Cn1nc(C(=O)NC(C)(C)C)c2ccccc21 | 4
Cc1nn(-c2ccccc2)c2nc(Cl)c(C(=O)O)cc12 | 15
CC(C)CCNC(=S)Nc1ccccc1F | 16
O=C(Nc1ccc(Br)c2cccnc12)c1ccc(Cn2cc(Cl)cn2)o1 | 18
O=C(NCc1ccccc1)c1ccc(Br)o1 | 10
COc1ccc(/C=N/NC(=S)Nc2ccccc2)cc1COc1ccc(Br)cc1 | 19
CN1C(=O)/C(=C/C=C2/CCCN2C)N(C)C1=S | 18
CCOc1ccccc1NC(=O)Cn1c(=O)sc2ccccc21 | 19
O=C(Nc1cccc([N+](=O)[O-])c1)C1C2/C=C\CCCCC21 (stereo not drawn) | 11
CCCOc1ccc(C(=O)OCC(=O)c2c(N)n(C)c(=O)n(C)c2=O)cc1OCC | -1
Cc1ccc(C)c(N2CCN(C(=O)c3cc(S(=O)(=O)N4CCOCC4)ccc3F)CC2)c1 | 8
Cc1nc2cc(NC(=O)N3CCCCC3)ccc2n1C | 14
O=C(c1sccc1Br)N1CCN(Cc2ccc3c(c2)OCO3)CC1 | 19
COc1cc(/C=N/NC(=O)c2c(C)nnn2-c2nonc2N)ccc1O | 6
O=C(O)c1ccc2c(c1)C(=O)N(c1ncccn1)C2=O | 12
Cc1ccc(C(=O)N/N=C2\CCc3ccccc32)c(C)c1 | 22
CC(C(=O)Nc1cccc(S(=O)(=O)N2CCOCC2)c1)N1CCN(c2ccc(F)cc2)CC1 (stereo not drawn) | 17
CCOc1cccc2sc(N(CCN(CC)CC)C(=O)c3cccc([N+](=O)[O-])c3)nc12 | 12
O=C(COc1ccc(C(=S)N2CCC(Cc3ccccc3)CC2)cc1)N1CCOCC1 | 9
CN(C)c1nc2ccccc2n(C)c1=O | 1
COc1ccc(-c2nsc(SCC(=O)NCc3ccc4c(c3)OCO4)n2)cc1 | 3

More structures:
| compound | Calb biofilm kill |
| --- | --- |
| C=CCn1c(SCc2nc3sc(C(=O)O)c(C)c3c(=O)[nH]2)nnc1-c1ccc(F)cc1 | -9 |
| CSc1ccc(CN(C)Cc2nc3ccccc3c(=O)[nH]2)cc1 | 1 |
| CC(C(=O)c1ccc(Br)cc1)[n+]1cccc(NC(=O)c2ccccc2)c1 (stereo not drawn) | 6 |
| COc1ccc(NC(=O)C(Sc2ccccc2)c2ccccc2)c(OC)c1 (stereo not drawn) | 8 |
| CCOC(=O)C(C)/C(C)=N/NC(N)=S (stereo not drawn) | 9 |
| CCN(CC)S(=O)(=O)c1ccc(N2CCCC2)c(NC(=O)c2ccccc2OC)c1 | 17 |
| O=C(Cn1[nH]c(=O)c2ccccc2c1=O)Nc1cccnc1 | 14 |
| Cc1cc(C)c2nc(SCC(=O)N(C)C3CCS(=O)(=O)C3)cc(C)c2c1 (stereo not drawn) | 18 |
| Cc1cc(C)cc(NC(=O)CSc2ccc(-c3cccs3)nn2)c1 | 8 |
| CCN(CC)CCCN1C(=O)CSC1c1ccc([N+](=O)[O-])cc1 (stereo not drawn) | 23 |
| OCCNc1nc2ccccc2n1CC(O)c1ccccc1 (stereo not drawn) | 8 |
| O=S(=O)(Nc1nc(SCc2ccc(Cl)cc2)n[nH]1)c1ccc(F)cc1 | 9 |
| O=C(Nc1cccc2ccccc12)NC1CCS(=O)(=O)C1 (stereo not drawn) | -5 |
| CC(C)CCN1CCN(C/C=C/c2ccco2)CC1CCO (stereo not drawn) | 1 |
| Cc1ccc(C)c(CS(=O)(=O)c2cn(CC(=O)N3CCCCC3)c3ccccc23)c1 | 11 |
| COc1ccc(NC(=O)CO/N=C(\C)c2cccs2)cc1 | 26 |
| CCCC(=O)Nc1nnc(SCC(=O)NCc2ccco2)s1 | 20 |
| CCC(/C=N/NC(=O)C(N)=O)CC | -1 |
| O=c1[nH]c(N/N=C/c2ccc(O)cc2)nc2ccccc12 | 24 |
| Cc1cc(C)nc(SCc2nnc(SCC(=O)Nc3nccs3)n2C)n1 | 8 |
| CC(C)CCN1CCN(Cc2ccon2)CC1CCO (stereo not drawn) | 3 |
| O=C(N/N=C/c1cccc([N+](=O)[O-])c1)c1cccs1 | 15 |
| COc1cc(/C=N/O)ccc1Oc1ccc([N+](=O)[O-])cc1[N+](=O)[O-] | 10 |
| CCOC(=O)NN1C(=O)c2ccccc2NC1c1ccc(OC)cc1 (stereo not drawn) | 19 |
| CC(C)c1ccccc1NC(=O)COc1ccc2c(=O)c(Oc3ccc4ccccc4c3)coc2c1 | 12 |
| S=c1[nH]nc(-c2ccco2)n1/N=C/c1cccc(Cl)c1 | 35 |
| O=C(NNc1ccccc1[N+](=O)[O-])Nc1ccc(F)cc1 | 11 |
| CC(=O)Nc1c(O)c2ccccc2[nH]c1=O | 29 |
| Fc1ccc(N=C2NN=C(c3cc(F)ccc3F)CS2)cc1 | 12 |
| COC(=O)c1sc(SC)c(-c2ccon2)c1C | 7 |
| N#Cc1ccc(N/N=C/c2cn(-c3ccccc3)nc2-c2ccccc2)c([N+](=O)[O-])c1 | 14 |
| Fc1ccc(-c2csc(-c3ccncc3)n2)cc1 | 8 |

Some of the entries so far, with each value named:
COC(=O)c1sc(SC)c(-c2ccon2)c1C
  Calb biofilm kill: 7
N#Cc1ccc(N/N=C/c2cn(-c3ccccc3)nc2-c2ccccc2)c([N+](=O)[O-])c1
  Calb biofilm kill: 14

(next part)
| compound | Calb biofilm kill |
| --- | --- |
| CC(C)CC(=O)N=C1SC2CS(=O)(=O)CC2N1Cc1ccccc1Cl (stereo not drawn) | 19 |
| COc1cccc(C2CCCCN(C)C2=O)c1 (stereo not drawn) | 8 |
| Cc1cc(/C=N/NC(=O)CC2(C)OCCO2)c(C)n1-c1ccc(Cl)c(Cl)c1 | 4 |
| CC(Sc1nc(N)cc(=O)[nH]1)C(=O)Nc1cccc(Cl)c1 (stereo not drawn) | 12 |
| COC(=O)C1=C(C)N(CCc2c[nH]c3ccc(OC)cc23)C(=O)C1 | -5 |
| NC(=O)C1(N2CCCCC2)CCN(C(=S)Nc2cccc(Cl)c2)CC1 | 18 |
| O=C1CCC([N+](=O)[O-])C(c2cccc(Br)c2)N1 (stereo not drawn) | 6 |
| Brc1ccc(C=Nc2ccc3c(c2)OCCOCCOCCO3)s1 | -10 |
| C/C(=N\NC(=O)C(=O)Nc1cc(C)ccc1C)c1ccncc1 | 4 |
| Cc1ccc(Sc2ncccc2C(=O)O)cc1C | 9 |
